Six1-Eya2 inh: blocks human Six1 binding to Eya2; Q15475+O00167; AlphaScreen GST-Six1/His-Eya2 binding, biochemical; stronger effect = lower value; control for the full effect not named in the record; activity change, % (concentration not given with the values); actives 0.56% (n = 360,000); AID 651725; in the data active = activity change below about -65%; inconclusive = about -30% to -65%; inactive = above about -30%; note: % is set by controls: 0 for no effect and ±100 for the full control effect
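Homogeneous AlphaScreen proximity assay pairing GST-Six1 with His-tagged Eya2 (added as 5X mix: 250 nM and 500 nM) in 50 mM Tris pH 8.0, 300 mM NaCl, 1 mM TCEP. Glutathione donor and nickel acceptor beads; 1 h, 37 °C, dark.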
gsp ag: gsp mutant agonism; actives 0.13% (n = 340,000); gsp mutant cells, cAMP HTRF, 30 min; control for the full effect not named in the record; Potency, µM (highest dose often 76.9 µM), for the others: at the top dose activation (cAMP increase), hits mostly activators; active = well fitted activation curve with a large enough effect; inconclusive = small, poorly fitted or top-dose-only effect, or another doubt; inactive = no such curve, though single readings can be large or run the other way; cell line not stated here;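 note: phosphodiesterase inhibitor Ro 20-1724 added with compounds to block cAMP breakdown; potency is the fitted concentration of half-maximal effect; nearly all actives have a fitted effect of over 60% in size; about a fifth of the inactives were tested at one dose only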
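Cells in DMEM/10% FBS with G418 were pretreated with compounds in DMSO plus […] (300 uM stock) for 30 min at 37C. cAMP was measured by HTRF (cAMP-d2 plus anti-cAMP antibody-K) after 30 min at room temperature.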
D2 potentiator: human D2 receptor positive allosteric modulation; P14416; DiscoveRx D2 beta-arrestin cells, luminescence, 90 min; 100% = 57 uM dopamine signal; AID 624464; potentiation, % (test concentration not listed); actives 0.23% (n = 360,000); active = potentiation of 50% or more; inconclusive = 30% to 50%; inactive = 30% or less;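 note: compound concentration not given in the record; tested on top of an EC20 dose of dopamine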
Target sequence (P14416 whole entry, looked up): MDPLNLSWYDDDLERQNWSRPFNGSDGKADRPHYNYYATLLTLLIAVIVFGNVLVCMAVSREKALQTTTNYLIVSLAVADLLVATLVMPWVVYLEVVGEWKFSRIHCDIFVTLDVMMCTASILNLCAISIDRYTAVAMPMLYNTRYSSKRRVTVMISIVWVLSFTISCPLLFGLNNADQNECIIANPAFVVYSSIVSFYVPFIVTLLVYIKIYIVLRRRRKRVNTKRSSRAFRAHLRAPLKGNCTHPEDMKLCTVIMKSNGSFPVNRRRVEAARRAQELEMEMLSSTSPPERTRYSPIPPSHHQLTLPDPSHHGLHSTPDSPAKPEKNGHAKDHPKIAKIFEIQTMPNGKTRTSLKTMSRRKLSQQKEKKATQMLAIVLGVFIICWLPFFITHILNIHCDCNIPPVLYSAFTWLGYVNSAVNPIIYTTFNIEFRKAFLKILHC
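PathHunter beta-arrestin assay in DiscoveRx D2 cells. Compounds were added with an EC20 of dopamine (50 nM final) for 90 min at 37 deg C. Luminescence was read 1 h after detection reagent, with 57 uM dopamine as the EC100 control.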
CtBP-E1A blk: CtBP/E1A binding inhibition | AlphaScreen GST-E1A/His-CtBP binding, 1536-well; stronger effect = lower value; control for the full effect not named in the record | activity change, % (test concentration not listed) | actives 0.49% (n = 340,000) | AID 651724; in the data active means activity change below about -65%; inconclusive means about -30% to -65%; inactive means above about -30%; note: % is set by controls: 0 for no effect and ±100 for the full control effect; compound concentration not given in the record
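GST-E1A and His-tagged CtBP (125 nM each as 5X stock) were preincubated with pin-transferred compound for 2 h at 37 °C in the dark, then glutathione donor and nickel acceptor beads were added for 1 h before AlphaScreen reading.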
D2 agonist: activates the human D2 dopamine receptor; actives 0.084% (n = 360,000); P14416; DiscoveRx PathHunter D2 beta-arrestin, luminescence, 90 min; 100% = 57 uM dopamine signal; activation, % (no concentration beside the values); AID 624465; in the data active = activation above about 40%; inconclusive = about 15% to 40%; inactive = below about 15%; note: compound concentration not given in the record; the text of the record calls up to 30% inactive
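Agonist mode: compounds alone added to overnight-plated D2 PathHunter cells for 90 min at 37 C, with 57 uM final dopamine (EC100) defining full response. Beta-arrestin recruitment detected by chemiluminescent reagent, read after 1 h at ambient temperature.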
gsp antag: antagonizes gsp, the McCune-Albright syndrome mutation; gsp-mutant cells, cAMP HTRF, 30 min; control for the full effect not named in the record; Potency, µM (series often up to 76.9 µM), for the others: at the top dose activity change, negative = inhibition, most hits filed as inhibitors; actives 0.4% (n = 340,000); AID 624288; active = falling curve of any shape with a large fitted effect; inconclusive = falling curve, mostly with a smaller effect; inactive = flat or rising curve; cell line not stated here;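 note: intracellular cAMP measured with PDE inhibitor Ro 20-1724 present during compound exposure; potency is the fitted concentration of half-maximal effect; % is set by controls: 0 for no effect and ±100 for the full control effect; nearly all actives have a fitted effect of over 65% in size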
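HTRF cAMP read-out (cAMP-d2 plus anti-cAMP antibody-K in lysis buffer, 30 min RT). Before lysis, cells are exposed to compounds with […] for 30 min at 37C in DPBS containing Ca/Mg, BSA and Tween 20.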
* hit, by the source's call; u = inconclusive; x = not tested or not shown; [ ] = remark or other dose.

SMILES	Six1-Eya2 inh	gsp ag	D2 potentiator	CtBP-E1A blk	D2 agonist	gsp antag
O=C(Nc1nc2c(s1)CCc1ccccc1-2)c1cccs1	11	23%	-3	-4	4.4	-17%
Cc1ccc(Cc2c(-c3ccc(C)cc3)nc3c4ccccc4ccn23)cc1	10	-40%[inhibitor]	4	5	-6.1	x
O=C(COC(=O)CSc1ccc([N+](=O)[O-])cc1)NCCc1ccccc1	-7	2%[15.4 µM]	8	9	3.0	0%
CCOc1ccc2cc(S(=O)(=O)N3CCCCC3)ccc2c1	20	36%	-4	6	0.3	-8%
CCOC(=O)CN1C(=O)S/C(=C/C=C/c2ccc(N(C)C)cc2)C1=O	-3	-2%[15.4 µM]	-11	-12	-2.3	-15%
Cc1ccc(C23CC4CC(CC(C(=O)NCC(=O)O)(C4)C2)C3)cc1	5	-5%	-13	x	-8.4	-2%
Cc1cc(C)c(C#N)c(N2CCCC2)n1	5	-53%[inhibitor]	-2	6	-1.4	4%
COc1ccccc1CN1C(=O)CN(C2CCCCCC2)C(=O)C1c1ccc(F)cc1 (stereo not drawn)	-2	12%	-11	-1	-5.1	-8%
CSc1nsc(SC)c1NC(=O)Nc1ccccn1	-1	u	-15	0	-1.6	17%
CCOC(=O)C1CCCN(C(=O)c2ccc(NC(=O)CC3SC(N4CCCC4)=NC3=O)cc2)C1 (stereo not drawn)	-4	25%[15.4 µM]	0	7	-4.5	7%
COc1ccc(NC(=O)CC2C(=O)N(c3ccccc3)C(=O)N2CCc2cccs2)cc1 (stereo not drawn)	-4	-1%	-2	-16	-3.6	-10%
Cn1c(=O)c2c(nc3n2CC(COc2ccc(Cl)cc2)O3)n(C)c1=O (stereo not drawn)	-7	14%	3	1	-2.1	-8%
FC(F)(F)c1cc(CCN2CCNC[C@H]2Cc2cccc3ccccc23)cc(C(F)(F)F)c1	0	x	-50	1	-14	10%
O=C(CN1CCN(CC(=O)Nc2ccccc2Cl)CC1)Nc1ccc2c(c1)OCCO2	-6	-30%[inhibitor]	-10	-2	0.3	-12%
Cc1ccc(C(=O)OCc2nnc(-c3ccccc3)o2)cc1S(=O)(=O)N1CCOCC1	0	-14%	9	-11	-4.2	5%
Cc1ccc(-n2nc3cc(C)c(NC(=O)c4cccnc4)cc3n2)cc1	6	u	-18	4	-1.9	9%
CCc1ccc(NC(=O)CSC2=C(C#N)C(c3ccc4c(c3)OCO4)CC(=O)N2)cc1 (stereo not drawn)	-8	3%	-18	6	-3.7	11%
CCC(C(=O)NC1CCCCC1)N(C(=O)c1snc(C(N)=O)c1N)c1ccc(OC)cc1OC (stereo not drawn)	16	13%[15.4 µM]	-8	16	-1.5	u
CCOC(=O)c1c(C)[nH]c(C(=O)CN2C(=O)NC(CC)(c3ccccc3)C2=O)c1C (stereo not drawn)	0	0%	5	-6	4.4	2%
Cc1ccc2c(c1)CCCN2CC(=O)Nc1cc(S(=O)(=O)N2CCCC2)ccc1Cl	-30	26%	-35	x	-0.2	-6%
O=[N+]([O-])c1ccc(-c2csc(Nc3ccccc3)[n+]2Cc2ccccc2)cc1	u	4%	-19	22	-1.7	-12%
Cc1cc(OCC(=O)NNC(=O)CCc2ccccc2)ccc1Br	6	1%	-5	9	0.3	6%
CCOC(=O)c1cc(S(=O)(=O)N2CCN(C(=O)OCC)CC2)cn1C	4	u	-5	6	-3.6	-2%
Cc1cccc(C(=O)N[C@H](C(=O)Nc2cccc(S(=O)(=O)N3CCCC3)c2)C(C)C)c1	-2	-25%	-15	x	-1.2	-15%
COc1ccc(C(=O)COC(=O)Cc2n[nH]c(=O)c3ccccc23)c(OC)c1	-3	6%	-17	-18	-0.6	10%
CC(=O)c1c(C)[nH]c(C(=O)OCC(=O)NCc2ccccc2)c1C	-2	u	-14	-5	-1.0	x
COc1ccc(CN(CCN(C)C)Cc2ccccc2)c(OC)c1	-3	-19%	-8	2	-4.0	21%
O=C(CSS(=O)(=O)O)N1CCN(C(=O)c2ccoc2)CC1	5	5%	3	-1	-2.3	17%
O=C(Cc1ccc(F)cc1)Nc1nnc(SCC(=O)NC2CCCC2)s1	9	-9%[15.4 µM]	-4	-13	-1.4	10%
CCOc1ccccc1NC(=O)C(=O)N/N=C/c1ccc([N+](=O)[O-])cc1	7	2%[15.4 µM]	-17	0	-7.2	-5%
CN1c2ccccc2C(C)(C)C12CC(c1cccc(S(=O)(=O)N3CCCC3)c1)=NO2 (stereo not drawn)	0	-116%[inhibitor]	-15	-1	-4.6	14%
CCN1CCc2c(sc(N)c2C#N)C1	-6	5%	u	5	43*	2%
CCn1c(/C=C/c2ccccc2)nc2ccccc21	14	-19%	-14	25	0.2	u
N#CC1(NC(=O)CSc2nc3ncc(Cl)cc3[nH]2)CCCCC1	3	15%	-19	-5	-0.6	2%
O=C(C1CCCO1)N1CCN(C(=S)Nc2ccc(F)cc2)CC1 (stereo not drawn)	16	-13%	-4	1	1.8	11%
CCN(CC)S(=O)(=O)c1ccc(NS(=O)(=O)c2ccc(OC)c([N+](=O)[O-])c2)cc1	-1	-5%	-20	29	1.0	-13%
COC(=O)C1C(=O)C2=C(CC1C)NC(C)=C(C(=O)OC1CCCC1)C2c1ccc(N(C)C)cc1 (stereo not drawn)	-27	-5%	-2	-29	-3.3	-14%
CCc1nccn1CCC(=O)N1CCc2c([nH]c3ccccc23)C1CC(C)C (stereo not drawn)	-4	13%	-10	-8	-1.3	5%
C/C(=C(/CCO)SSCC1CCCO1)N(C=O)Cc1cnc(C)nc1N (stereo not drawn)	0	x	-4	5	-0.3	5%
C=CCN(Cc1nc(-c2cc(OC)c3c(c2)OCO3)oc1C)C1CCS(=O)(=O)C1 (stereo not drawn)	-3	31%	-1	-8	-2.3	-11%

Whole records, looked up by structure. Screens in order: Six1-Eya2 inh	gsp ag	D2 potentiator	CtBP-E1A blk	D2 agonist	gsp antag
Listed for O=C(CN1CCN(CC(=O)Nc2ccccc2Cl)CC1)Nc1ccc2c(c1)OCCO2 : -6	-30%[inhibitor]	-10	-2	0.3	-12%
Listed for COc1ccc(C(=O)COC(=O)Cc2n[nH]c(=O)c3ccccc23)c(OC)c1 : -3	6%	-17	-18	-0.6	10%
Listed for CCOc1ccc2cc(S(=O)(=O)N3CCCCC3)ccc2c1 : 20	36%	-4	6	0.3	-8%
Listed for CCOC(=O)CN1C(=O)S/C(=C/C=C/c2ccc(N(C)C)cc2)C1=O : -3	-2%[15.4 µM]	-11	-12	-2.3	-15%
Listed for O=C(C1CCCO1)N1CCN(C(=S)Nc2ccc(F)cc2)CC1 (stereo not drawn) : 16	-13%	-4	1	1.8	11%

Going on with the list:
SMILES	Six1-Eya2 inh	gsp ag	D2 potentiator	CtBP-E1A blk	D2 agonist	gsp antag
C=C(C)C1Cc2c(C)nn(-c3ccccc3)c2C1 (stereo not drawn)	17	-31%[inhibitor]	-12	15	-3.1	-3%
CCOC(=O)C1=NN(C(=O)c2ccc(OC)cc2)C(O)(c2ccc(Cl)cc2)C1 (stereo not drawn)	-5	3%[15.4 µM]	-10	-2	-8.6	u
Cc1cc(C)c(C#N)c(OCC(=O)Nc2ccccc2)n1	-2	-3%[15.4 µM]	-5	1	2.4	11%
CCOC(=O)c1cc(C(C)C)sc1NC(=O)COC(=O)c1nccnc1N	0	2%	4	1	5.1	-3%
Cc1cc(C)cc(OCC(=O)NCC2CCCO2)c1 (stereo not drawn)	-3	-27%	-9	4	0.8	-6%
CCc1nc2ccc(C(=O)NCCNC(C)=O)cn2c1N(CCC(C)C)CCN(C)C	11	x	-6	-5	-4.2	x
Cc1c(NC(=O)c2cc(-c3ccco3)on2)c(=O)n(-c2ccccc2)n1C	4	3%	-8	1	-0.4	10%
COC(=O)c1cc(CNC(=O)c2ccccc2OCc2c(C)noc2C)ccc1OC	2	-2%	18	11	-1.0	-6%
C/C(Cn1cnc([N+](=O)[O-])n1)=N/NC(=O)COc1c(Cl)cc(Cl)cc1Cl	1	-29%	-1	-9	-2.6	6%
CCCCOc1ccc(C(=O)NCC2(c3ccccc3)CCOCC2)cc1	29	-12%	14	40	-1.2	9%

Six records drawn at random from those above, as already listed:
SMILES	Six1-Eya2 inh	gsp ag	D2 potentiator	CtBP-E1A blk	D2 agonist	gsp antag
C=C(C)C1Cc2c(C)nn(-c3ccccc3)c2C1 (stereo not drawn)	17	-31%[inhibitor]	-12	15	-3.1	-3%
Cc1c(NC(=O)c2cc(-c3ccco3)on2)c(=O)n(-c2ccccc2)n1C	4	3%	-8	1	-0.4	10%
CCOC(=O)C1=NN(C(=O)c2ccc(OC)cc2)C(O)(c2ccc(Cl)cc2)C1 (stereo not drawn)	-5	3%[15.4 µM]	-10	-2	-8.6	u
CCCCOc1ccc(C(=O)NCC2(c3ccccc3)CCOCC2)cc1	29	-12%	14	40	-1.2	9%
Cc1cc(C)cc(OCC(=O)NCC2CCCO2)c1 (stereo not drawn)	-3	-27%	-9	4	0.8	-6%
CCc1nc2ccc(C(=O)NCCNC(C)=O)cn2c1N(CCC(C)C)CCN(C)C	11	x	-6	-5	-4.2	x

Further results
SMILES	Six1-Eya2 inh	gsp ag	D2 potentiator	CtBP-E1A blk	D2 agonist	gsp antag
O=C(c1cc(=O)[nH]c2ccccc12)N(Cc1nnc(-c2ccccc2Cl)o1)C1CC1	-11	-13%[15.4 µM]	5	-2	-3.4	4%
Cn1c(N2CCOCC2)c(C=O)c2ccccc21	5	2%	-4	x	2.2	2%
Cc1cccc(NC(=S)NC(=O)C(c2ccccc2)c2ccccc2)n1	-5	-27%	9	2	u	9%
COCCN(C(=S)Nc1cccc(C)c1)C(C)c1cccs1 (stereo not drawn)	0	0%	-8	23	1.0	-32%
CCOC(=O)c1ccc(Oc2cc(C)nc(Cl)n2)cc1	4	-3%[15.4 µM]	-3	-1	-2.3	0%
Cn1c(NC(=O)/C=C/c2ccccc2)cc(=O)n(C)c1=O	-21	u	-10	4	-2.5	4%
CN(C(=O)c1cccc(NC(=O)Cc2ccc(NC(=O)C3CCN(S(=O)(=O)c4cccc([N+](=O)[O-])c4)CC3)cc2)c1)C1CCC1	1	x	x	1	2.3	5%
Cc1sc2ncnc(N3CCC(C(=O)Nc4nnc(SCc5ccccc5F)s4)CC3)c2c1C	-1	-4%[15.4 µM]	0	-13	-2.5	-2%
O=C(Cc1sc(-c2ccccc2Cl)nc1-c1ccccc1)Nc1ccccc1	8	6%	-2	-8	1.1	37%[activator]
Cc1ccc(COc2ccc(C(=O)NN)cc2)cc1	2	-7%	3	1	-1.7	-8%
C=CCn1c(SCC(=O)Nc2cccnc2Cl)nnc1-c1ccc(C(C)(C)C)cc1	0	-41%[inhibitor]	14	-16	1.0	-13%
COCCn1c(SC(C)C(=O)NCC2CCCO2)nc2scc(-c3ccc(F)cc3)c2c1=O (stereo not drawn)	3	3%[15.4 µM]	-18	-7	-6.1	-18%
CN(C1CCCC1)C1CCN(C(=O)CNC(=O)/C=C/c2ccccc2)CC1	7	-36%	-18	-7	-3.9	15%
